Assay outcomes: PubChem BioAssay, National Center for Advancing Translational Sciences (NCATS)
gsp agonist: agonists of gsp mutant (McCune-Albright syndrome); gsp mutant cells, cAMP HTRF, 30 min; control for the full effect not named in the record; Potency, µM (highest dose often 76.9 µM), for inactives: top-dose activation (cAMP increase), usual class: activators; 340,000 tested, 0.13% active; active = well fitted activation curve with a large enough effect; inconclusive = small, poorly fitted or top-dose-only effect, or another doubt; inactive = no such curve, though single readings can be large or run the other way; cell line not stated here;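 note: phosphodiesterase inhibitor Ro 20-1724 added with compounds to block cAMP breakdown; potency is the fitted concentration of half-maximal effect; nearly all actives have a fitted effect of over 60% in size; about a fifth of the inactives were tested at one dose only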
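Cells in DMEM/10% FBS with G418 were pretreated with compounds in DMSO plus […] (300 uM stock) for 30 min at 37C. cAMP was measured by HTRF (cAMP-d2 plus anti-cAMP antibody-K) after 30 min at room temperature.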
Sfp inh: Sfp phosphopantetheinyl transferase inhibition | 310,000 tested, 3.5% active | Biochemical Sfp PPTase activity, qHTS | Q9F4F7 | Potency, µM, for inactives: max response, negative = inhibition, most hits filed as inhibitors; active = well fitted inhibition curve with a large enough effect; inconclusive = small, poorly fitted or top-dose-only effect, or another doubt; inactive = no such curve, though single readings can be large or run the other way;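 note: the enzyme is Sfp with the accession as filed and its product quenches rhodamine fluorescence; potency is the fitted concentration of half-maximal effect; 0% = enzyme reaction without inhibitor and -100% = no enzyme wells; top concentration of the series not given in the record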
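Reaction rates are the 30-min fluorescence difference (ex 525, em 598 nm) in wells containing 15 nM Sfp, 5 uM rhodamine-CoA and 12.5 uM BHQ-2-YbbR at pH 7.6 with 10 mM MgCl2.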
TRPV1 potentiator: potentiators of human vanilloid receptor 1 (TRPV1); 320,000 tested, 0.02% active; TRPV1-expressing cells, Fluo-8 calcium influx, capsaicin EC20 potentiation; host cell line not named in the record; control for the full effect not named in the record; Q8NER1; potentiation, % at 8.33 µM; active means potentiation above 80%; inconclusive means 30% to 80%; inactive means below 30%; note: 0% is about no effect
Target sequence (Q8NER1 whole entry, looked up): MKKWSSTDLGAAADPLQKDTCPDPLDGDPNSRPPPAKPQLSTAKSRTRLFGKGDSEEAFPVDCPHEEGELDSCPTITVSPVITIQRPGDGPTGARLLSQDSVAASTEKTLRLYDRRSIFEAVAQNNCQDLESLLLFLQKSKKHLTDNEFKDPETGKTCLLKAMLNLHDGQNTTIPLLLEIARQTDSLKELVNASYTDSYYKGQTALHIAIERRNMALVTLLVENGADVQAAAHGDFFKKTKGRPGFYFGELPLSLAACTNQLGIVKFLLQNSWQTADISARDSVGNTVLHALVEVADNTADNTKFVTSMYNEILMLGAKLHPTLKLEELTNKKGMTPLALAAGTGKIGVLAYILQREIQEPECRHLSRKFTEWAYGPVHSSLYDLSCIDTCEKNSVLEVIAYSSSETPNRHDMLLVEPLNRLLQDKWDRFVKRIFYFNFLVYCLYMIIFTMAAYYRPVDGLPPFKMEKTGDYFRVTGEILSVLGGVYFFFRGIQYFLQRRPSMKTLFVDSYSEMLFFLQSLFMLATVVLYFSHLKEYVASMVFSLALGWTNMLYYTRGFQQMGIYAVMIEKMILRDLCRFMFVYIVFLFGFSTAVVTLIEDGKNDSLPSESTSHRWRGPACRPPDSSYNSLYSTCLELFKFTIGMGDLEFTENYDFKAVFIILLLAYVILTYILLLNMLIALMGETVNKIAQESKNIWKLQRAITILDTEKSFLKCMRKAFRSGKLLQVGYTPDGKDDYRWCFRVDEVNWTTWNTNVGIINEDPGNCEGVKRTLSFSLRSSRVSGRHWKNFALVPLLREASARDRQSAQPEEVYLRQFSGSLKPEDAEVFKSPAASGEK
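TRPV1-expressing cells were cultured overnight at 35.5C and loaded with Fluo-8 calcium dye for 40 to 90 min at room temperature. After a 10 s baseline, compound was added and calcium influx was read kinetically for 3 min (ex 480/em 520 nm).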
ClpP mod: qHTS Assay for Activators of ClpP; 340,000 tested, 1.9% active; Potency, µM (titrated, usually from 57.5 µM), for the others: at the highest dose activity change, negative = active; AID 651965, 2013; ATP-dependent Clp protease proteolytic subunit (Bacillus subtilis (strain 168)), P80244; purified B. subtilis ClpP, FRET peptide cleavage, 20 min; active = well fitted falling curve with a large enough effect; inconclusive = small, poorly fitted or top-dose-only effect; inactive = no such curve, though single readings can be large or run the other way; note: potency is the fitted concentration of half-maximal effect; the source files actives as falling curves though it sought activators and does not explain the sign; nearly all actives have a fitted effect of over 65% in size; many hits overshoot -100%
Target sequence (P80244 whole entry, looked up): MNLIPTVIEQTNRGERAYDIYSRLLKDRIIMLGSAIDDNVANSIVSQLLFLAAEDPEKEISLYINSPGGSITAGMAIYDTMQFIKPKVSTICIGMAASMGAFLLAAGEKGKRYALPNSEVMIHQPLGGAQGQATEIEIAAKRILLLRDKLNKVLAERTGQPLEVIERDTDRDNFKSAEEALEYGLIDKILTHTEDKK
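Purified B. subtilis ClpP, 10 microg/mL final in Tris/HCl pH8 with KCl, BSA, glycerol and Tween-20, cleaved an Abz/nitrotyrosine-quenched decapeptide. Fluorescence (ex 320, em 430) was read at 0 and 20 min at room temperature. Delta was normalized to 5.8 microM ADEP and DMSO/no-enzyme controls.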
CtBP-E1A inh: CtBP/E1A binding inhibition | AlphaScreen GST-E1A/His-CtBP binding, 1536-well; stronger effect = lower value; control for the full effect not named in the record | activity change, % (no concentration beside the values) | 340,000 tested, 0.49% active | AID 651724; in the data active means activity change below about -65%; inconclusive means about -30% to -65%; inactive means above about -30%; note: % is set by controls: 0 for no effect and ±100 for the full control effect; compound concentration not given in the record
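Homogeneous bead-based format: GST-tagged E1A captured on glutathione donor beads, His-tagged CtBP on nickel acceptor beads; compounds precede bead addition by 2 h at 37 °C.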
gsp antagonist: antagonists of gsp mutant (McCune-Albright syndrome); gsp-mutant cells, cAMP HTRF, 30 min; control for the full effect not named in the record; Potency, µM (titrated, usually from 76.9 µM), for inactives: at the top dose activity change, negative = inhibition, most hits filed as inhibitors; 340,000 tested, 0.4% active; AID 624288; active = falling curve of any shape with a large fitted effect; inconclusive = falling curve, mostly with a smaller effect; inactive = flat or rising curve; cell line not stated here;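 note: intracellular cAMP measured with PDE inhibitor Ro 20-1724 present during compound exposure; potency is the fitted concentration of half-maximal effect; % is set by controls: 0 for no effect and ±100 for the full control effect; nearly all actives have a fitted effect of over 65% in size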
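HTRF cAMP read-out (cAMP-d2 plus anti-cAMP antibody-K in lysis buffer, 30 min RT). Before lysis, cells are exposed to compounds with […] for 30 min at 37C in DPBS containing Ca/Mg, BSA and Tween 20.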
Menin-MLL FL inh: menin-MLL binding inhibition, fluorescein peptide; Fluorescence polarization, fluorescein-MLL peptide displacement from menin; FP activity change, % at 61.4 µM; 290,000 tested, under 10 active; inconclusive = falling polarisation curve, or a change in total fluorescence; inactive = total fluorescence flat and polarisation flat or rising; no compound was filed as active; the % refers to the polarisation; negative = inhibition;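 note: % of control where 0% means no effect; inhibitors lower the polarisation; unlabelled MLL peptide was the positive control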
The depositor's hits bear a star; ? = inconclusive; . = not tested or not shown; & = joins results of further samples; [ ] = remark or other dose.

SMILES	gsp agonist	Sfp inh	TRPV1 potentiator	ClpP mod	CtBP-E1A inh	gsp antagonist	Menin-MLL FL inh
COc1ccc(CNC(=O)CCCn2nc(C)c3c(C)n(-c4ccccc4)nc3c2=O)cc1	-9.4%	9.9%	-6.0	-1.0%&-8.1%	0.9	-13.6%	.
CC(O)(P(=O)(O)O)P(=O)(O)O	.	2.6%&10.7%	.	-1.6%	-7.7	-10.5%	1.5
COc1cc(NC(=O)CN2CCC(C(N)=O)(N3CCCCC3)CC2)c(OC)cc1Cl	4.9%[15.4 µM]	15.8%	5.7	.	5.3	-13.2%	-4.2
CSc1nsc(NC(=O)OCc2ccc(Cl)cc2)n1	?	11.0%	-1.2	0.4%	.	-15.8%	-4.2
Cc1noc(C)c1CSc1ccccc1C(=O)O	-4.5%[15.4 µM]	17.6%	11.0	.	5.4	9.4%	-4.2
COc1cc(C(C(=O)NC2CCCC2)N(C(=O)c2snc(C(N)=O)c2N)C2CCCC2)cc(OC)c1OC (stereo not drawn)	-23.7%	9.4%	-1.3	-15.6%	7.7	8.7%	.
O=C(Nc1ccc(NS(=O)(=O)c2ccccc2)cc1)c1ccc(Cl)cc1	-1.9%[15.4 µM]	5.0%	-14.1	-6.9%	0.0	2.4%	1.8
COc1cc(N(C(C)=O)c2ccc(O)cc2)c2ncccc2c1	?	.	.	1.2%	6.8	.	.
CN(C)c1cccc(C(=O)OCC(=O)Nc2ccccc2Sc2ccccc2)c1	-27.1%	?	2.6	?	-1.3	-6.2%	-3.9
O=C(COC(=O)c1ccc(O)cc1)Nc1cccc(S(=O)(=O)NC2=NCCC2)c1	-20.1%	.	-1.9	-0.1%	-15.4	7.7%	.
CC(C)CC(C(=O)N1CCOCC1)N1Cc2ccccc2C1=O (stereo not drawn)	?	15.7%	?	-1.7%	-22.5	0.5%	0.6
COc1ccc(OC(C)C(=O)NC(C)c2ccccc2)cc1 (stereo not drawn)	-2.2%	6.6%	-5.2	1.5%	.	-8.5%	-12.1
COCCCNC(=S)Nc1ccccc1[N+](=O)[O-]	-1.4%[15.4 µM]	-1.6%	?	.	-15.5	.	-1.5
CC(C)c1ccc(NC2CCCN(C(=O)c3ccnn3C)C2)cc1 (stereo not drawn)	-8.5%	7.3%	-14.6	-1.6%	1.9	0.9%	.
CCC(CC)c1nnc(NC(=O)COc2ccc3c(c2)OCO3)s1	3.1%	25.1µM*	-8.7	.	-5.4	-1.4%	0.9
CC(O)CN=c1cc(-c2ccccc2)oc2ccc(Cl)cc12 (stereo not drawn)	-38.4%[inhibitor]	8.5%	17.5	1.8%	-6.3	0.0%	3.2
Cc1ccc(S(=O)(=O)NCCC(=O)NNC(=O)COc2ccc(Br)cc2)cc1C	16.2%[15.4 µM]	.	6.1	.	-1.5	6.0%	.
COc1ccccc1COC(=O)C(NC(=O)c1ccc(C)cc1)C(C)C (stereo not drawn)	17.7%[15.4 µM]	.	-21.5	.	16.8	-9.1%	.
Cc1cc(NC(=O)CN2CCCCC2C)nc2c1c(=O)oc1ccccc12 (stereo not drawn)	.	18.7%	12.6	.	.	.	0.5
COCCCNC(=S)N1CCCN(c2nc3c(C)c(C)ccc3cc2C#N)CC1	-61.8%[inhibitor]	9.7%	3.7	.	13.8	-6.2%	-1.4
O=C(CCN=C1NS(=O)(=O)c2ccccc21)NCc1ccccc1F	8.7%[15.4 µM]	.	.	-0.1%	-1.6	2.9%	.
COc1cccc(NC(=O)N2CCc3ccccc3C2)c1	?	12.1%	-15.2	-1.2%	0.6	1.5%	.
CN(CC1CCCO1)S(=O)(=O)c1ccc(C(=O)NCc2ccccc2)cc1 (stereo not drawn)	-3.2%	13.9%	4.3	.	1.7	5.6%	-5.8
O=c1cc(CSc2ccc([N+](=O)[O-])cc2)nc2sccn12	25.1%[15.4 µM]	-18.2%	?	.	19.0	-2.9%	-1.6
Cc1ccc(NC(=O)C(C)N2CCOCC2)c(C(=O)c2ccccc2)c1 (stereo not drawn)	-17.5%	-0.7%	1.5	1.8%	5.1	-13.1%	4.8
COc1cccc(NC(=O)c2ccccc2-c2nc(-c3cccc(C)c3)no2)c1	-40.5%[inhibitor]	0.6%	-4.0	-2.2%	-2.8	-27.4%	3.4
CCC(C)c1ccccc1O (stereo not drawn)	.	.	-8.5	0.1%	3.2	0.4%	.
COc1cc(/C=C2/C(=O)NN(c3cccc(Cl)c3)C2=O)cc(Br)c1O	-43.8%[inhibitor]	-20.3%	-21.1	0.3%	3.5	-29.4%	?
COc1ccc(CCN(C)CCC(=O)Nc2ccc(C)cc2)cc1OC	-3.7%	2.2%	-0.5	-0.6%	7.9	3.4%	3.7
O=C(NNS(=O)(=O)c1ccc(F)cc1)C1CC(c2cccnc2)=NO1 (stereo not drawn)	-15.6%	-17.0%	?	.	6.0	9.8%	-0.9
Cc1noc(/C=C/N(C)C)c1S(=O)(=O)N1CCCC(C(=O)NCc2ccc(F)cc2)C1 (stereo not drawn)	.	20.1%	-9.5	.	.	.	-0.2
CC1(C)Cc2c(C#N)c(N3CCOCC3)nc(Cc3ccccc3)c2CO1	2.6%	-2.0%	0.4	?	-1.7	-10.6%	-1.3
CC(C)CCn1c(N2CCCC2)nc2c1c(=O)[nH]c(=O)n2C	-8.2%	13.6%	-13.7	1.1%	-7.4	?	-1.9
O=C(Cn1cnc2cc([N+](=O)[O-])ccc2c1=O)N(Cc1ccccc1)C1CCS(=O)(=O)C1 (stereo not drawn)	6.0%[15.4 µM]	1.1%	-3.6	0.1%	-0.2	-14.1%	-3.5
Cc1nn(-c2cccc(C(F)(F)F)c2)c(=O)c2noc(C)c12	-7.5%[15.4 µM]	8.3%	.	-2.0%	0.4	1.5%	6.6
COc1cccc2cc(-c3nnc(SCC(=O)NCc4ccccc4)n3C)oc12	4.5%	14.7%	7.9	-14.0%	-2.9	-7.0%	0.3
CC(C)c1ccc(Nc2nc(Cl)nc(NCCO)n2)cc1	3.7%[15.4 µM]	-3.3%	-8.8	-0.1%	-0.4	15.2%	-4.8
O=C1c2[nH]nc(-c3ccccc3O)c2C(c2cccc(O)c2)N1Cc1ccco1 (stereo not drawn)	?	-20.2%	-15.4	0.6%	-1.2	-4.5%	-1.7
Cc1nc2sc(C)c(C)c2c(=O)o1	-0.5%	20µM*	4.8	-0.1%	0.4	-1.0%	2.1
CC(=O)c1cc2c(cc1NC(=O)CCC1CCCC1)OCO2	.	5.9%	-6.8	.	.	.	2.7
COc1cc(C(=S)NC2CCCCC2)ccc1O	-5.4%[15.4 µM]	?	7.8	0.0%	-7.7	0.6%	0.4
Cc1onc(-c2c(Cl)cccc2Cl)c1C(=O)NCCN1CCOCC1	-18.7%	0.5%	5.6	0.4%	2.3	0.5%	-0.7
CCOC(=O)c1cc2sc(C)cc2n1CC(=O)N(CC)CC	-1.3%	-21.4%	10.9	-0.4%	0.1	9.1%	-0.1
Cc1nn(-c2ccc(N3CCCCC3)nn2)c(C)c1CCC(=O)Nc1ccc(F)c(F)c1	2.8%	-0.4%	12.7	-3.4%	-15.9	-16.1%	-0.8
Cc1cc(C(C)(C)C)cc(C)c1COC(=O)CN1C(=O)NC2(CCCC2)C1=O	11.5%	.	-6.0	-1.7%	.	-8.7%	.
C[C@H](NC(=O)[C@H]1N2C(=O)c3ccccc3C2SC1(C)C)C(=O)N1CCN(C)CC1 (stereo partly drawn)	-3.8%	13.3%	11.9	2.1%	1.6	15.3%	-1.2
Cc1ccc(CCNC(=O)CN(C)S(=O)(=O)c2cnc[nH]2)cc1	2.0%	-17.3%	-16.8	-20.9%	7.6	9.8%	2.2
Fc1ccc(C(CCNCc2cccs2)c2ccco2)cc1 (stereo not drawn)	2.4%[15.4 µM]	9.2%	-8.5	4.9%	1.7	9.9%	4.5
Cn1c(=O)c2c(SCC(=O)Nc3ccc4c(c3)OCCO4)nc(CC(C)(C)C)nc2n(C)c1=O	?	16.9%	14.8	-3.3%	1.9	2.9%	12.6
CC(=O)N/C(=C\c1ccccc1Cl)C(=O)O	2.9%	12.7%	-4.0	0.5%	10.0	11.2%	2.8
Cc1cc(Br)ccc1NC(=O)CN1C(=O)CCC1=O	17.8%	14.4%	25.9	0.4%	-2.1	2.3%	2.9
Fc1cc(Br)ccc1NC(=S)Nc1cccnc1	15.3%	15.3%	-2.2	-1.4%	9.1	9.7%	5.2
Clc1ccc(-n2ncc3c(NCC4CCCO4)ncnc32)cc1 (stereo not drawn)	-53.5%[inhibitor]	-0.3%	-18.7	4.0%	-1.1	1.8%	0.0
CCN(CC)S(=O)(=O)c1ccc2c(c1)N(CC(=O)Nc1cccnc1Cl)C(=O)CO2	?	13.0%	22.7	-0.2%	6.7	12.8%	1.5
Cc1cc(SC#N)cc(C)c1NC(=O)CCl	?	-27.7%	21.7	0.8%	-16.7	-12.2%	-3.9
Nc1nnc(-c2cn(-c3ccccc3)nc2-c2ccc(Cl)cc2)o1	?	12.0%	-1.7	.	7.6	-6.6%	10.2
COc1ccc(Cc2noc(CN3CCCC(OCc4ccccn4)C3)n2)cc1OC (stereo not drawn)	14.7%[15.4 µM]	-1.1%	3.1	.	0.4	4.6%	-0.2
O=C(Cc1cccc(C(F)(F)F)c1)NCC(=O)Nc1cc(Cl)ccc1Cl	2.0%[15.4 µM]	6.4%	-23.0	.	-6.1	8.5%	1.2
Oc1cc2c(cc1CN1CCc3ccccc3C1)OCO2	24.7%	-1.2%	-4.5	-2.3%	-18.9	-2.3%	.
Cc1cc(C(=O)Nc2nnc(C3CCCCC3)s2)cs1	-14.3%	12.4%	-3.4	1.2%	-0.5	11.3%	1.8
CCc1nnc(NS(=O)(=O)c2ccc(NC(=O)CCC(=O)OC)cc2)s1	-0.3%	-1.3%	2.8	1.2%	1.7	-6.2%	-0.3
